Source: PubChem (Center for Chemical Genomics, University of Michigan)
TAR Tat displ = HIV-1 TAR-Tat binding disruption; HIV-1 TAR RNA, Tat peptide displacement FRET; hits give high values; z-score (test concentration not listed); actives 0.6% (n = 100,000); AID 1259389;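 note: score is relative to mean and SD of negative controls; some compounds called inactive have numbers as strong as hits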
CDC25B CDK2 inh = human CDC25B-CDK2/CyclinA binding inhibition; P30305+P24941; HTRF CDC25B-CDK2/CyclinA binding, anti-His/anti-Flag; hits give high values; z-score (no concentration beside the values); actives 0.72% (n = 94,000); AID 1259370;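 note: score is relative to mean and SD of negative controls; strong numbers were not always called active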
Active calls of the source: *; . = no result given.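 Rule for the calls: active = z-score from 3 up in half or more of its runs; inactive = the rest.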

Sequence of screens – TAR Tat displ | CDC25B CDK2 inh
> Cc1ccc(/C(O)=C2\C(=O)C(=O)N(CCC(=O)O)C2c2ccccc2F)cc1 (centres undefined)
 : . | 0.05
> CCN(CC)CCNc1sc(S(=O)(=O)CC)nc1S(=O)(=O)c1ccc(Cl)cc1
 : -1 | -0.11
> Cn1c(=O)n(C)c2cc(CN)ccc21
 : 2 | -0.07
> Cc1ccc(Nc2nc3ccccc3c3nnc(C)n23)cc1F
 : 0.21 | -1
> CN(C)c1cc(NCCN2CCCCC2)c2c3c(onc13)-c1ccccc1C2=O
 : 0.47 | 2.6
> COc1ccc(C(=O)c2cn(Cc3cccc(OC)c3)c3cc4c(cc3c2=O)OCO4)cc1
 : -0.16 | -1.9
> O=c1c(NC2CCCc3ccccc32)c(-c2ccc(Cl)cc2)c1=O (centres undefined)
 : 1.6 | .
> c1ccn(-c2ncnc3sc4c(c23)CCCC4)c1
 : -1.5 | -1.1
> CCOC(=O)C(C)NC(=O)c1c(C)oc2ncnc(N3CCCCC3)c12 (centres undefined)
 : 0.87 | .
> CCC1CN(C(=O)Nc2cc(C)ccc2C)c2cc(C)ccc2O1 (centres undefined)
 : 1.2 | .
> Cc1cc2oc(-c3ccccc3C(=O)O)cc(=O)c2cc1C
 : 0.13 | 0.6
> O=C(Nc1ccc(Br)cc1)N1CCN(Cc2ccc3nccnc3c2)CC1
 : -1.1 | .
> Cc1ccc(SCc2cn3c(C)cc(C)nc3n2)cc1
 : 0.31 | .
> O=C(c1nc(SCc2ccccc2F)ncc1Cl)N(Cc1ccco1)C1CCS(=O)(=O)C1 (centres undefined)
 : 1.3 | -0.31
> CCc1ccc(-c2cc(C)no2)cc1S(=O)(=O)Nc1cc(Cl)c(OC)cc1OC
 : 0.39 | .
> CC(=O)c1cccc(NC(=O)/C=C/c2ccc(Cl)cc2Cl)c1
 : . | -1.1
> O=C(CN1C(=O)c2ccccc2C1=O)NCc1ccsc1
 : . | 0.66
> CCCC(=O)Nc1noc2ccccc12
 : 0.28 | -0.19
> Cc1ccc(CNc2ncnc3c2nnn3C)cc1
 : 1.8 | .
> Cc1c(C(=O)C(=O)NCC2CCCO2)c2ccccc2n1C (centres undefined)
 : . | -2.4
> CN(C)c1ccc(-c2nc3ncccn3c2Nc2ccccc2)cc1
 : 0.63 | -2.4
> O=C(Nc1c2c(nn1-c1ccc(Cl)cc1)CS(=O)(=O)C2)c1ccc(Cl)cc1
 : 0.79 | .
> C=CCSc1nc2c(c(=O)[nH]1)C(c1cccc(O)c1)CC(=O)N2 (centres undefined)
 : 2.1 | -1.7
> COc1ccc(C2CC(=O)Oc3c2c(=O)n(C)c2ccccc32)cc1OC (centres undefined)
 : 0.61 | 0.8
> Cc1cc(O)c2c(c1)C(=O)c1cc(O)cc(O)c1C2=O
 : 1.9 | -1.2
> Cc1ccc2nc(N(CCCN(C)C)C(=O)c3ccc4c(c3)OCCO4)sc2c1
 : 2.1 | .
> COc1nc(C)cc(C)c1C(N)=O
 : . | -0.9
> CN(C)/C=C(\Sc1ccc(Cl)cc1)C(=O)c1ccc(Cl)cc1
 : . | 3.7
> C[n+]1c(/C=C/c2ccc3c(c2)OCO3)sc2ccccc21
 : 0.77 | -0.42
> Cc1cc(NCCCN2CCOCC2)n2nc(C(F)(F)F)c(-c3ccc(Cl)cc3)c2n1
 : 1.1 | 1.4
> COc1cc(C2Nc3ccc4ncccc4c3C3=C2C(=O)CC(c2ccccc2)C3)ccc1OC(C)=O (centres undefined)
 : 1.6 | -1.5
> CCOC(=O)C1=C(C)Nc2nc3ccccc3n2C1c1cc(F)cc(F)c1 (centres undefined)
 : -0.35 | -1.5
> Clc1ccc(CNCCSc2nnnn2-c2ccccc2)cc1
 : -1.4 | -0.69
> N#CC1=C(N)OC2=C(C(=O)CC(c3ccccc3)C2)C1c1ccc(F)cc1 (centres undefined)
 : . | -2.1
> CCCCNC(=O)C(=O)NCCN1CCOCC1
 : 0.78 | 0.08
> CCOc1ccc(Nc2cc(N3CCOCC3)c3noc4c3c2C(=O)c2ccccc2-4)cc1
 : -0.44 | -1.9
> Cc1ccc(/C=C(\C#N)c2nc(-c3cc4cc(Br)ccc4oc3=O)cs2)o1
 : . | -3.1
> O=C(NC1CC1)c1nn(-c2ccc(Cl)cc2)nc1CO
 : 2 | 0.13
> CCN(CC)CCCNC(=O)C1CCN(c2nn3c(=O)c4c(nc3s2)CCCC4)CC1
 : 1.3 | .
> CN(C)CCCN1C(=O)C(=O)/C(=C(/O)c2ccc(S(=O)(=O)N(C)C)cc2)C1c1ccco1 (centres undefined)
 : 0.51 | -0.79

Some of the entries above, reformatted:
COc1ccc(C2CC(=O)Oc3c2c(=O)n(C)c2ccccc32)cc1OC (centres undefined)
  TAR Tat displ: 0.61
  CDC25B CDK2 inh: 0.8

Cc1cc(NCCCN2CCOCC2)n2nc(C(F)(F)F)c(-c3ccc(Cl)cc3)c2n1
  TAR Tat displ: 1.1
  CDC25B CDK2 inh: 1.4

Other entries follow.
Sequence of screens – TAR Tat displ | CDC25B CDK2 inh
> COc1ccc(Cl)cc1NC(=O)Cn1nc2c3sccc3ncn2c1=O
 : 0.67 | .
> O=S1(=O)N=C(c2ccccc2)Nc2ccc(S(=O)(=O)N3CCCCC3)cc21
 : 0.05 | .
> C=CCOc1ccc(C2N3CC4(CC)CN2CC(CC)(C3)C4O)cc1 (centres undefined)
 : -0.8 | -0.91
> Cc1ccc(C2CC(c3ccc(F)cc3)=NN2c2ccccc2)o1 (centres undefined)
 : . | -0.1
> COC(=O)c1cc(S(=O)(=O)Nc2ccc(Cl)cc2F)c[nH]1
 : 1.7 | .
> CC(=O)c1cnc2cc(C)nn2c1C
 : . | -1.7
> COc1ccc(-c2nc3c(c(SC)n2)Cc2cccc(OC)c2O3)cc1
 : 1.2 | -0.06
> CC1(C)CC(=O)C2=C(C1)Nc1ccccc1NC2c1coc2c(Cl)cc(Cl)cc2c1=O (centres undefined)
 : . | -0.44
> CCOc1ccc2c(c1)C(C)CC(C)(C)N2C(=O)NC1CCCCC1 (centres undefined)
 : -0.72 | -1
> Oc1ccccc1-c1n[nH]c(=S)n1Cc1ccccc1
 : . | -0.93
> CCOc1ccc(S(=O)(=O)Nc2ccc(Cl)c(N3CCCS3(=O)=O)c2)cc1
 : 0.64 | .
> CC1=C(C(=O)NCCCN2CCN(C)CC2)C2(CCCCC2)OC1=O
 : 0.04 | .
> N#CCCN(Cc1cccnc1)C(=S)Nc1ccc(F)cc1
 : . | -2.9
> O=S(=O)(Nc1ccccc1SCc1ccc2nonc2c1)c1cccs1
 : . | 0.68
> CCN(CC)Cc1c(O)ccc2oc(C)c(C(=O)NC3CCCC3)c12
 : 0.37 | -2
> Cc1ccc(C)n1-c1sccc1C(=O)NN
 : . | -1.6
> O=C(CN1C(=O)C2C3C=CC(C3)C2C1=O)NCc1ccc2c(c1)OCO2 (centres undefined)
 : . | -0.9
> C=CCSCC1Nc2cc(Cl)c(S(N)(=O)=O)cc2S(=O)(=O)N1 (centres undefined)
 : 1.5 | .
> O=C(O)CCC(=O)N1CCc2cc(S(=O)(=O)NCC3CCCO3)ccc21 (centres undefined)
 : 0.21 | -1.5
> COc1ccc(N2C(=O)C3C4c5ccccc5C(CO)(c5ccccc54)C3C2=O)cc1 (centres undefined)
 : 0.58 | -1.1

One compound at a time, as listed above.
COC(=O)c1cc(S(=O)(=O)Nc2ccc(Cl)cc2F)c[nH]1 as listed: TAR Tat displ = 1.7; CDC25B CDK2 inh = .
N#CCCN(Cc1cccnc1)C(=S)Nc1ccc(F)cc1 as listed: TAR Tat displ = .; CDC25B CDK2 inh = -2.9

Later entries:
Sequence of screens – TAR Tat displ | CDC25B CDK2 inh
> CC1CCN(S(=O)(=O)c2ccc(NC(=O)/C=C/c3cccc4ccccc34)cc2)CC1
 : . | -9.4
> O=S(=O)(Cc1noc(-c2ccc(OC(F)(F)F)cc2)n1)Cc1ccco1
 : . | -0.87
> O=S(=O)(c1cccc(Cl)c1)N1CCC(N2CCOCC2)CC1
 : 1.9 | .
> CC1(C)CC(=O)C2=C(C1)NC(=O)CC2c1ccc(F)cc1 (centres undefined)
 : -0.53 | -0.39
> CN1CCN(CCCNC(=O)c2noc3c2CCc2sccc2-3)CC1
 : 0.76 | .
> CCN(c1ccccc1)S(=O)(=O)c1ccc2[nH]c3c(c2c1)CCCC3
 : 0.46 | .
> COc1ccc(-n2ncc3c(N4CCN(c5ccc(F)cc5)CC4)ncnc32)cc1
 : . | -1.7
> O=S(=O)(Nc1nc2ccccc2s1)c1cccc2cccnc12
 : . | -1
> O=C(Nc1nccs1)C1CCCN(c2ncnc3c2nc2n3CCCCC2)C1 (centres undefined)
 : 0.43 | .
> Cc1ccc(OCC(O)NNC(=O)OC(C)(C)C)cc1C (centres undefined)
 : . | -1.1
> O=C(Cn1ncc2c(=O)oc3ccccc3c21)NCCCN1CCCC1=O
 : . | -0.36
> CCCCNc1cc(C)nc(CCC)n1
 : 0.75 | 0.36
> CN(C(=O)c1nc(-c2ccncc2)no1)c1ccc(F)cc1
 : 2.6 | .
> NCCc1nnc(SCC(=O)c2ccc(Cl)cc2)o1
 : -0.14 | -0.45
> Cc1cc(N2CCN(CCO)CC2)n2c(nc3ccccc32)c1C#N
 : 0.12 | 3.4
> CCN(CC)c1ccc(NC(=O)C2CCC(CNc3c(N4CCCC4)c(=O)c3=O)CC2)c(C)c1 (centres undefined)
 : -0.64 | -1.2
> O=C(C1CCN(c2ccc(Cl)cc2)C1=O)N1CCC(N2CCCCC2)CC1 (centres undefined)
 : 0.79 | .
> O=C(O)c1cc(-c2cccc(O)c2)nc2n[nH]c(-c3ccc(Cl)cc3)c12
 : 3.5 | .
> O=C(Nc1ccc2c(c1)OCCO2)Nc1nc2c(s1)CCCCC2
 : 1 | .
> CC(C)NC(=O)NC1=C(C#N)C(C)(C)Cc2ccccc21
 : 1.5 | -1.8
> Cc1ccc(C)n1CCN1CCN(C(=O)CSc2nc3ccccc3nc2N2CCOCC2)CC1
 : 0.75 | -1.7
> O=C(Nc1nc(-c2ccncc2)cs1)c1sc2ccccc2c1Cl
 : 1.6 | .
> CC(C)NC(=O)n1nccc1-c1ccc([N+](=O)[O-])cc1Cl
 : . | -1.4
> CC1CS(=O)(=O)N(c2ccc(C(=O)NC3CCCC3)cc2)C1=O (centres undefined)
 : 1.1 | -1.1
> O=C(CSc1ccc(-c2ccccn2)nn1)Nc1ccc(F)cc1F
 : 2.5 | .
> CCOc1ccc(C2=C(Cl)C=C(c3ccc(C)cc3)c3ccccc3O2)cc1
 : . | -0.64
> CCc1ccc(-n2nnc(S(=O)(=O)c3ccc(CC)cc3)c2N)cc1
 : 2.8 | -1.1
> C=CCNC(=O)Nc1c[nH]c2ccc(C)cc2c1=O
 : 0.7 | -1.6
> Cc1cccc(-n2c(CNC(=O)c3ccco3)nnc2SCC(=O)Nc2nnc(C)s2)c1
 : . | -0.29
> N#Cc1c(NC(=O)CCc2ccc(-c3ccc(Cl)cc3)o2)sc2c1CCCC2
 : -1.6 | -0.62
> CC(C)(C)C(=O)Oc1ccc2c(=O)c(Oc3ccccc3Br)coc2c1
 : 1.9 | -2.5
> Cc1ccc2nc(Nc3ccc(C)c(F)c3)c3nnnn3c2c1
 : -1 | -1.2
> CCCCn1c(=O)[nH]c2nc3cc(NC(=O)CC)ccc3nc2c1=O
 : -0.75 | -0.64
> CC1=C(C(=O)NCCCN2CCOCC2)C2(CCN(S(=O)(=O)c3cccs3)CC2)OC1=O
 : 0.23 | .
> CSc1cccc(NC(=O)CN2C(=O)c3ccccc3S2(=O)=O)c1
 : 4.6 | -0.14
> CCOC(=O)c1[nH]c(C)c(C(=O)N2CCCC2)c1C
 : . | 0.33
> CC(CCc1ccco1)NC(=O)c1nn(C)c2c1CS(=O)(=O)c1ccccc1-2 (centres undefined)
 : 2.2 | -0.54
> COc1ccc(N2CCN(c3ncnc4c3cnn4-c3ccc(F)cc3)CC2)cc1
 : 2.2 | .
> CC(C)C(=O)Nc1nnc(S(=O)(=O)N(C)c2ccc(Cl)cc2)s1
 : 2.5 | -3.1
> CCN1C(=O)C(Cc2nc3ccccc3c(=O)n2CC)c2cc(Br)ccc21 (centres undefined)
 : -0.87 | -2.1
> CCCCN1CCS(=O)(=O)c2c(Cl)c(N3CCOCC3)nc(Oc3ccc(F)cc3)c21
 : 0.06 | 7.8
> Cc1cc2cc(CCNC(=O)CC3CCCCC3)c(=O)[nH]c2cc1C
 : . | -3.2
> COC(=O)c1cc(=O)n2ccccc2c1C#N
 : . | -0.86
> COc1ccc(C2OCC(CO)(CO)CO2)cc1
 : . | -0.81
> O=S(=O)(c1ccc(Cl)cc1)N1CCCC(c2nc(-c3cccc(F)c3)no2)C1 (centres undefined)
 : 2.5 | .
> Cc1ccc(C)c(CSc2ccc3nnc(CCNS(=O)(=O)c4ccccc4)n3n2)c1
 : 0.16 | .
> O=C(NCCCN1CCN(C2CCCCC2)CC1)c1ccc(N2CCSc3ncccc32)s1
 : 0.08 | .
> CC1CSc2ccc(S(=O)(=O)N3CCCC3)cc2NC1=O (centres undefined)
 : 0.75 | .
> CCCCCCCCCC(=O)N[C@H](CCCN=C(N)N)C(=O)N[C@@H](C(=O)N[C@H](CCCCN)C(=O)N[C@@H](CCCN=C(N)N)C(=O)CCl)C(C)C
 : -0.69 | .
> Cc1csc(-c2cn(C(C)C)c(=O)n(CC(=O)NN)c2=O)n1
 : . | -3
> CC(=O)O[C@H]1CC[C@@]2(C)C(C[C@@H](OC(C)=O)[C@]3(C)C2CC[C@@]2(C)[C@H](c4ccoc4)OC(=O)[C@H]4O[C@]423)C1(C)C (some centres undefined)
 : 2.5 | .
> Cc1cc(C)n(-c2cc(Nc3ccc(Br)cc3)ncn2)n1
 : -1.7 | .
> O=C(O)c1c2c(nc3ccc(S(=O)(=O)N4CCC(C(=O)N5CCCCC5)CC4)cc13)CCCC2
 : . | -0.11
> COc1cccc(C2C=C(C(=O)O)Nc3ncnn32)c1OC(C)C (centres undefined)
 : 0.83 | -1.2
> CC1(C)CC(=O)c2c(oc3c(Br)cc(NS(=O)(=O)c4ccccc4)cc23)C1
 : . | -2.1
